Bioassay records deposited in PubChem BioAssay by Broad Institute.
Env fusion inh: inhibitors of HIV Env-mediated cell fusion. 360,000 tested, 1.1% active. HeLa-JRFL Env/CEM21 cell fusion, luciferase. inhibition, % at 12.3 µM;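 active means mean replicate inhibition score of at least 50 and every replicate individually at or above 50; inconclusive means only one of the two criteria met; inactive means mean below 50 and not all replicates reaching 50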;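 further: 0% = plate neutral controls and 100% = maraviroc near 300 nM; one replicate is shown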
UUG fidelity: alters start codon recognition fidelity in yeast. S. cerevisiae UUG-firefly luciferase reporter, luminescence/redox ratio. activity score, % at 18.7 µM. 350,000 tested, 0.13% active. AID 602363;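 active means replicate mean at a twofold rise or more, about +100% in these data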;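 further: firefly luciferase made from a UUG start codon reports start codon fidelity; reporter light over untreated wells divided by growth signal over untreated wells; some hits fall short of that in this replicate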
An asterisk follows results filed as active; ? = inconclusive; & = joins results of further samples; [ ] = another dose, or the depositor's remark.

Order of values – Env fusion inh, UUG fidelity
C[C@@H]1CN([C@@H](C)CO)C(=O)c2cccc(NC(=O)C3CCOCC3)c2O[C@@H]1CN(C)CC1CC1
    -10[16.7 µM], 1
CS(=O)(=O)Nc1ccc2c(c1)[C@@H]1C[C@@H](CC(=O)NCc3cccnc3)O[C@@H](CO)[C@@H]1O2
    -10[16.7 µM], -14
C[C@H](CO)N1C[C@H](C)[C@H](CN(C)Cc2ccccc2)Oc2ccc(NS(=O)(=O)c3cn(C)cn3)cc2CC1=O
    -5[16.7 µM], -11
C[C@@H]1CCCCO[C@@H](CN(C)Cc2ccc(C(=O)O)cc2)[C@H](C)CN([C@H](C)CO)C(=O)c2cc(NC(=O)NC3CCCCC3)ccc2O1
    11[16.7 µM], 10
C[C@H](CO)N1C[C@H](C)[C@H](CN(C)C)Oc2ccc(NC(=O)Cn3cnnn3)cc2CC1=O
    1[16.7 µM], -6
COc1cccc(-c2ccc3c(c2)O[C@@H](CN(C)C)[C@H](C)CN([C@@H](C)CO)S3(=O)=O)c1
    4[16.7 µM], 6
CN(C)Cc1cn(CC[C@@H]2CC[C@H](NC(=O)Nc3ccccc3F)[C@@H](CO)O2)nn1
    5[16.7 µM], -3
C[C@@H]1CN([C@H](C)CO)C(=O)c2cc(NC(=O)Cc3ccccc3)ccc2O[C@@H](C)CCCCO[C@H]1CN(C)S(C)(=O)=O
    -7[16.7 µM], 3
CNC[C@@H]1Oc2cc(C#CCC3CCCC3)ccc2S(=O)(=O)N([C@H](C)CO)C[C@H]1C
    39[16.7 µM], 24
COC(=O)[C@H](Cc1ccccc1)N1CC2=C[C@@H](C3CC3)n3c(=O)n(C)c(=O)n3[C@H]2[C@@H]1[C@@H](O)Cc1ccccc1
    -3[16.7 µM], -4
C[C@H]1CN([C@@H](C)CO)S(=O)(=O)c2ccc(-c3cccc(C(=O)N(C)C)c3)cc2O[C@H]1CN(C)C(=O)Cc1ccccn1
    4[16.7 µM], -8
CCCC#Cc1cnc2c(c1)C(=O)N([C@@H](C)CO)C[C@H](C)[C@H](CN(C)C(=O)NC1CCCC1)O2
    -21[16.7 µM], 13
Cc1cc(C)cc(NC(=O)Nc2ccc3c(c2)C(=O)N(C)[C@H]2CC[C@H](CC(=O)O)O[C@H]2CO3)c1
    -2[16.7 µM], 1
COc1ccc(CN(C)C[C@@H]2OCCCC[C@H](C)Oc3ccc(NS(=O)(=O)c4ccccc4)cc3C(=O)N([C@H](C)CO)C[C@@H]2C)cc1
    -3[16.7 µM], 9
C[C@H](CO)N1C[C@H](C)[C@H](CN(C)S(=O)(=O)c2ccccc2)Oc2ncc(C#CCN(C)C)cc2C1=O
    5&-28[16.7 µM], 13&11
Cc1ccc(S(=O)(=O)Nc2ccc3c(c2)C(=O)N([C@@H](C)CO)C[C@@H](C)[C@H](CN(C)S(=O)(=O)c2cccs2)OCCCC[C@@H](C)O3)cc1
    1[16.7 µM], -4
C[C@@H]1CN([C@@H](C)CO)C(=O)c2cccc(NC(=O)c3cnccn3)c2O[C@@H]1CN(C)S(=O)(=O)c1cccs1
    -8[16.7 µM], -7
CCCN(C)C[C@H]1Oc2ncc(C#CCC(C)C)cc2C(=O)N([C@@H](C)CO)C[C@H]1C
    -8[16.7 µM], -1
CNC[C@H]1Oc2cc(-c3cccnc3)ccc2S(=O)(=O)N([C@@H](C)CO)C[C@@H]1C
    -18[16.7 µM], -10
C[C@H](CO)N1C[C@H](C)[C@@H](CN(C)C(=O)CCC(F)(F)F)OCCCC[C@H](C)Oc2ccc(NC(=O)CCCN(C)C)cc2C1=O
    0[16.7 µM], 16
CC(C)NC(=O)N[C@H]1C=C[C@H](CC(=O)NCCN2CCCC2)O[C@@H]1CO
    -11[16.7 µM], -30
C[C@@H]1CN([C@H](C)CO)C(=O)c2cc(C#Cc3ccncc3)cnc2O[C@@H]1CN(C)CC1CCCC1
    9[16.7 µM], -6
C[C@@H]1CN([C@@H](C)CO)C(=O)CCCn2cc(nn2)CO[C@H]1CN(C)C(=O)c1ccccc1
    -8[16.7 µM], 5
CCC(=O)Nc1ccc2c(c1)C(=O)N(C)C[C@@H](OC)[C@@H](C)CN(Cc1ccccc1)[C@H](C)CO2
    -2[16.7 µM], 3
C[C@@H]1CN([C@H](C)CO)C(=O)c2cc(C3=CCCCC3)cnc2O[C@@H]1CN(C)C(=O)C1CCOCC1
    14[16.7 µM], -9
CNC[C@@H]1Oc2ccc(NC(=O)Nc3ccc4c(c3)OCO4)cc2C(=O)N([C@@H](C)CO)C[C@H]1C
    -38[16.7 µM], -3
CCS(=O)(=O)Nc1ccc2c(c1)C(=O)N(C)C[C@H](OC)[C@@H](C)CN(C(=O)C1CCC1)[C@@H](C)CO2
    1[16.7 µM], 4
C[C@H]1CN([C@@H](C)CO)C(=O)c2cc(NC(=O)NC3CCCCC3)ccc2O[C@H]1CN(C)S(=O)(=O)c1cccs1
    14[16.7 µM], -1
C[C@@H]1CCCCO[C@H](CN(C)S(=O)(=O)c2ccc(Cl)cc2)[C@@H](C)CN([C@H](C)CO)C(=O)c2cc(NC(=O)c3ccncc3)ccc2O1
    -3[16.7 µM], -1
C[C@@H]1CCCCO[C@H](CN(C)Cc2ccc3c(c2)OCO3)[C@@H](C)CN([C@@H](C)CO)C(=O)c2cc(NC(=O)Nc3ccc(F)cc3)ccc2O1
    -29[16.7 µM], 16

Overlap with the part before: 6 compounds; new compounds follow.
Order of values – Env fusion inh, UUG fidelity
C[C@@H]1CN([C@H](C)CO)C(=O)c2cc(C3=CCCCC3)cnc2O[C@@H]1CN(C)C(=O)C1CCOCC1
    14[16.7 µM], -9
CNC[C@@H]1Oc2ccc(NC(=O)Nc3ccc4c(c3)OCO4)cc2C(=O)N([C@@H](C)CO)C[C@H]1C
    -38[16.7 µM], -3
CCS(=O)(=O)Nc1ccc2c(c1)C(=O)N(C)C[C@H](OC)[C@@H](C)CN(C(=O)C1CCC1)[C@@H](C)CO2
    1[16.7 µM], 4
C[C@H]1CN([C@@H](C)CO)C(=O)c2cc(NC(=O)NC3CCCCC3)ccc2O[C@H]1CN(C)S(=O)(=O)c1cccs1
    14[16.7 µM], -1
C[C@@H]1CCCCO[C@H](CN(C)S(=O)(=O)c2ccc(Cl)cc2)[C@@H](C)CN([C@H](C)CO)C(=O)c2cc(NC(=O)c3ccncc3)ccc2O1
    -3[16.7 µM], -1
C[C@@H]1CCCCO[C@H](CN(C)Cc2ccc3c(c2)OCO3)[C@@H](C)CN([C@@H](C)CO)C(=O)c2cc(NC(=O)Nc3ccc(F)cc3)ccc2O1
    -29[16.7 µM], 16
COc1ccc(CN(C)C[C@H]2Oc3ccc(NS(=O)(=O)c4c(C)noc4C)cc3C(=O)N([C@H](C)CO)C[C@H]2C)cc1
    13[16.7 µM], -17
C[C@@H]1CN([C@@H](C)CO)C(=O)Cc2cc(NC(=O)Nc3ccccc3)ccc2O[C@H]1CN(C)CC1CC1
    -10[16.7 µM], 14
CC(C)CC#Cc1cnc2c(c1)C(=O)N([C@H](C)CO)C[C@@H](C)[C@H](CN(C)Cc1cccc(F)c1)O2
    0[16.7 µM], 16
CC(C)NC(=O)Nc1ccc2c(c1)C(=O)N([C@H](C)CO)C[C@H](C)[C@H](CN(C)S(=O)(=O)c1ccccc1)OCCCC[C@@H](C)O2
    -3[16.7 µM], -9
CNC[C@@H]1OCCCC[C@H](C)Oc2ccc(NC(=O)Cc3ccccc3)cc2C(=O)N([C@@H](C)CO)C[C@@H]1C
    2[16.7 µM], 10
CCC(=O)N(C)C[C@@H]1Oc2ncc(-c3ccc(C#N)cc3)cc2C(=O)N([C@H](C)CO)C[C@@H]1C
    1[16.7 µM], -12
COc1ccc(NC(=O)N(C)C[C@H]2OCCCC[C@@H](C)Oc3ccc(NS(=O)(=O)c4cn(C)cn4)cc3C(=O)N([C@H](C)CO)C[C@H]2C)cc1
    -17[16.7 µM], -7
COc1ccc(NC(=O)Nc2ccc3c(c2)[C@@H]2C[C@@H](CC(=O)N4CCc5ccccc5C4)O[C@H](CO)[C@@H]2O3)cc1
    6[16.7 µM], -18
C[C@@H]1CN([C@H](C)CO)C(=O)c2cccc(NC(=O)c3ccc(-c4nccs4)cc3)c2O[C@H]1CN(C)Cc1ccccc1
    28[16.7 µM], -10
O=C(C1=C[C@@H](C2CC2)C[C@@H](OCCCCO)O1)N1CCCCCCC1
    1[16.7 µM], 1
C/C=C/c1cnc2c(c1)C(=O)N([C@H](C)CO)C[C@H](C)[C@@H](CN(C)C(=O)Nc1ccc(C(F)(F)F)cc1)O2
    1[16.7 µM], 3
CO[C@H]1CN(C)C(=O)c2ccc(NC(=O)c3cccc(F)c3)cc2OC[C@@H](C)NC[C@@H]1C
    -15[16.7 µM], -7
CN1C(=O)c2cc(NC(=O)C3CCOCC3)ccc2OC[C@H]2O[C@@H](CC(=O)NCc3ccccc3F)CC[C@@H]21
    -3[16.7 µM], 8
Cc1ccc(S(=O)(=O)Nc2ccc3c(c2)C(=O)N([C@H](C)CO)C[C@H](C)[C@H](CN(C)CC2CC2)OCCCC[C@@H](C)O3)cc1
    -3[16.7 µM], 2
CC(C)C(=O)Nc1ccc2c(c1)C(=O)N(C)[C@@H]1CC[C@H](CC(=O)O)O[C@@H]1CO2
    9[16.7 µM], 10
COc1ccc(NC(=O)N[C@H]2CC[C@H](CCNS(=O)(=O)c3ccccc3F)O[C@@H]2CO)cc1
    -10[16.7 µM], 6
C[C@@H]1CN([C@H](C)CO)C(=O)c2cc(NC(=O)C3CCCCC3)ccc2O[C@@H](C)CCCCO[C@@H]1CN(C)S(=O)(=O)c1cccs1
    -38[16.7 µM], -10
COc1ccc(CN(C)C[C@@H]2OCCCC[C@H](C)Oc3ccc(NC(=O)Nc4ccc(C(F)(F)F)cc4)cc3C(=O)N([C@H](C)CO)C[C@H]2C)cc1
    ?, 19
C[C@H]1CN([C@@H](C)CO)C(=O)c2cc(C#Cc3ccccc3F)cnc2O[C@@H]1CN(C)C
    -16[16.7 µM], 1
C[C@H]1CN([C@@H](C)CO)C(=O)c2cccc(NC(=O)c3cnccn3)c2O[C@@H]1CN(C)Cc1ccc(C(F)(F)F)cc1
    8[16.7 µM], 7
O=C(C[C@H]1CC[C@H]2[C@@H](COC[C@@H](O)CN2Cc2ccc(Cl)cc2)O1)NCCc1ccccc1
    -2[16.7 µM], -6
COc1ccc(S(=O)(=O)Nc2ccc3c(c2)CC(=O)N([C@H](C)CO)C[C@@H](C)[C@@H](CN(C)CC2CC2)O3)cc1
    -15[16.7 µM], -9
CCCC#Cc1ccc2c(c1)O[C@H](CN(C)C(=O)c1ccccn1)[C@H](C)CN([C@@H](C)CO)S2(=O)=O
    13[16.7 µM], 2
CC(C)NC(=O)Nc1ccc2c(c1)CC(=O)N([C@H](C)CO)C[C@@H](C)[C@H](CN(C)S(=O)(=O)c1cn(C)cn1)O2
    24[16.7 µM], 0
O=C(CN1CCOCC1)NCC[C@H]1CC[C@@H](NC(=O)Nc2ccc(Cl)cc2)[C@@H](CO)O1
    3[16.7 µM], 18
Cc1noc(C)c1NC(=O)N(C)C[C@@H]1OCCCC[C@@H](C)Oc2ccc(NC(=O)C3CCCCC3)cc2C(=O)N([C@@H](C)CO)C[C@H]1C
    0[16.7 µM], -3
C[C@H]1CN([C@@H](C)CO)C(=O)c2cc(C#CC3(O)CCCC3)cnc2O[C@H]1CN(C)Cc1cccnc1
    20[16.7 µM], 3
C[C@@H]1CN([C@H](C)CO)C(=O)c2cccc(NS(=O)(=O)c3cccs3)c2O[C@@H]1CN(C)Cc1ccc(C(F)(F)F)cc1
    84*[16.7 µM], 12
O=C(Nc1ccccc1F)N[C@@H]1CC[C@H](CC(=O)N2CCCCC2)O[C@H]1CO
    1[16.7 µM], -5
CC(C)NC(=O)N[C@@H]1CC[C@@H](CCNC(=O)C2CC2)O[C@H]1CO
    8[16.7 µM], 5
C[C@@H]1CN([C@H](C)CO)S(=O)(=O)c2ccc(C#CC3CCCCC3)cc2O[C@@H]1CN(C)C
    3[16.7 µM], -11
C[C@@H](NC(=O)C[C@H]1CC[C@H](NC(=O)CN2CCOCC2)[C@@H](CO)O1)c1ccccc1
    -11[16.7 µM], -11
C[C@H]1CN([C@@H](C)CO)C(=O)c2cc(NC(=O)Nc3ccc(F)cc3)ccc2O[C@H]1CN(C)Cc1ccc(Oc2ccccc2)cc1
    22[16.7 µM], 2
COc1ccccc1-c1cn(CC[C@H]2CC[C@H](NS(=O)(=O)c3ccccc3C)[C@H](CO)O2)nn1
    -2[16.7 µM], 2
C[C@@H]1CCCCO[C@H](CN(C)C(=O)c2ccccc2)[C@H](C)CN([C@@H](C)CO)C(=O)c2cc(NC(=O)CCC(F)(F)F)ccc2O1
    -126[16.7 µM], 15
O=C(Nc1ccc2c(c1)[C@@H]1C[C@H](CC(=O)N3CCc4ccccc4C3)O[C@H](CO)[C@@H]1O2)C1CCC1
    -7[16.7 µM], 6
CCCC(=O)Nc1ccc2c(c1)C(=O)N(C)[C@H]1CC[C@H](CC(=O)NC3CCCC3)O[C@@H]1CO2
    10[16.7 µM], 6
C[C@@H]1CN([C@H](C)CO)C(=O)Cc2cc(NC(=O)Nc3ccc(F)cc3)ccc2O[C@@H]1CN(C)Cc1ccc(Oc2ccccc2)cc1
    -22[16.7 µM], 27
C[C@H]1CN([C@@H](C)CO)C(=O)Cc2cc(NC(=O)Cc3cn(C)c4ccccc34)ccc2O[C@H]1CN(C)Cc1ccc(Oc2ccccc2)cc1
    -15[16.7 µM], -5

Not all compounds are listed. The share of hits here may be higher or lower than overall.
